Screening results (PubChem)
RGS16-Gao = modulates binding between human RGS16 and Galphao. O15492+P09471. 220,000 compounds, 0.38% hits. binding response (% of control), % at 10 µM. bead-based flow cytometry RGS16-Galphao binding, fluorescence; actives lie on both sides. AID 1441;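 active = below 25% or above 175%, edge rows of some plates excepted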;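 also: Galphao activated by GDP with aluminum fluoride before binding; 100% = wells without compound and 0% = beads without RGS; some results beyond the cut were filed as inactive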
Target sequence (O15492 whole entry, looked up): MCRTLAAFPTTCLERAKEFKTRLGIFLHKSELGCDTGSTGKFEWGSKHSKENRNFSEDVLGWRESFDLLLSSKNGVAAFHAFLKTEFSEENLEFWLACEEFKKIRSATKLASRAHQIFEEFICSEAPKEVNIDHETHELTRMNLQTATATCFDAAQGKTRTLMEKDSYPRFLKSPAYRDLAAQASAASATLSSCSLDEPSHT
Target sequence (P09471 whole entry, looked up): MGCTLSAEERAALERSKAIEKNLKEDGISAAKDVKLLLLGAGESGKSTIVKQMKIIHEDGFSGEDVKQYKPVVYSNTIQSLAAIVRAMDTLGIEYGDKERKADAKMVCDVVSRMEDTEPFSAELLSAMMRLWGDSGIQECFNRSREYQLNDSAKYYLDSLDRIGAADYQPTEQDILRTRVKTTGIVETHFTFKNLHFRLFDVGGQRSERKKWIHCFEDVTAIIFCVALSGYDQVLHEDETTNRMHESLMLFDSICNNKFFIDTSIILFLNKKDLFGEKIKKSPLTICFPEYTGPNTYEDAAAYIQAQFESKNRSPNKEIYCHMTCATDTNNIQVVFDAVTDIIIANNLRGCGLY
HSV replic up = increases HSV replication in cells. maximum fold increase. HSV replication augmentation in cells, fold increase. 220,000 compounds, 0.005% hits. AID 1956;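 active = peak rise of 1.5-fold or more in the series; inconclusive = self-fluorescent or not available for retest; tested in PC3 cells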;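 also: first round at 10 µM; read as green reporter fluorescence; hits show the peak of a series up to 25 µM; 1 = signal of infected wells without compound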
PKD1 inh = inhibitors of human PKD1 kinase; Q15139; inhibition, %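 (about 10 µM by stock and volumes)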; 200,000 compounds, 0.056% hits; PKD1 kinase fluorescence polarization assay;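 active = inhibition of 50% or more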;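 also: controls were vehicle for no effect and a reference inhibitor for full effect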
GALR2 ag = agonists of human galanin receptor 2 (GALR2) | GALR2-expressing cells, agonist activation read-out | activation, %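 (tested at 5 µM)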 | 140,000 compounds, 0.48% hits | AID 803;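 active = above mean plus 3 SD of all compounds, about 5% in these data, not always enough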;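 also: 0% = vehicle buffer wells and 100% = reference agonist at full effect; tested in CHO reporter cells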
Target sequence (O43603 whole entry, looked up): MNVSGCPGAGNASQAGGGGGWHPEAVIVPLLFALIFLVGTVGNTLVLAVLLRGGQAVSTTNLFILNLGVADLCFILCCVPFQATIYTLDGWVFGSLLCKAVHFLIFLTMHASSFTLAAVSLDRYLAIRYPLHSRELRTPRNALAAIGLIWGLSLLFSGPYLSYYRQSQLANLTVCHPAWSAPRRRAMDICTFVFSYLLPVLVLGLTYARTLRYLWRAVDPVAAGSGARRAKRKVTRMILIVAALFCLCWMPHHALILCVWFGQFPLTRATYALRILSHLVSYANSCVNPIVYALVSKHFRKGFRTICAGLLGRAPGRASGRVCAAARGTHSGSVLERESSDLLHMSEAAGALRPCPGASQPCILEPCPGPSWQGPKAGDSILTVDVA
INS promoter inh = TRM-6 insulin promoter activity inhibition; TRM-6 cells (human fetal islet line), insulin promoter-eGFP reporter, imaging; reporter expression induced with tamoxifen; AID 1273; 130,000 compounds, 0.9% hits; inhibition, % at 2 µM;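 active = inhibition above the mean plus 3 SD, with well images judged a real hit on visual review, cut at about 60% in these data, passing the limit was not always enough; inconclusive = inhibition over the cutoff but images rejected on review; inactive = inhibition not above the cutoff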
INS promoter inh cell count = recorded beside INS promoter inh, whose call it bears; normalized cell count, %; measured here: cell count, toxicity; reference of the scale not given here;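 cells exposed to compound for 48 h; stained nuclei by imaging scaled within each plate; lower means fewer cells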
HSV replic up primary fold = recorded beside HSV replic up, whose call it bears; fold increase; compound at 10 µM; measured here: primary screen fold increase 10 uM; tested in PC3 cells;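 GFP signal in the first replicate; 1 = infected wells without compound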
The depositor's hits bear a star; i = inactive; ? = inconclusive; / = no result given.

SMILES	RGS16-Gao	HSV replic up	HSV replic up primary fold	PKD1 inh	GALR2 ag	INS promoter inh	INS promoter inh cell count
COCCNC(=O)c1cc(OC)c(OC)cc1[N+](=O)[O-]	98	i	0.9	-2	/	47	94
CCc1nc(SCC(=O)NCc2ccc(F)cc2)c2c(=O)n(C)c(=O)n(C)c2n1	105	/	/	-2	-1.1	/	/
O=C(CN1CCOCC1)N(c1ccccc1)c1ccc2ccccc2c1	104	i	1	-3	-0.2	/	/
CCOc1ccc(NC(=O)CCSc2nnc(C)s2)cc1	96	i	1	-4	-0.6	-23	199
Cc1cc(/C=N/n2cnnc2)c(C)n1-c1ccc(C(=O)O)cc1	102	i	0.85	-5	-1.7	-38	92
COc1ccc(C(=O)NC(=S)N(Cc2ccccc2)Cc2ccccc2)cc1	74	i	0.74	11	-1.1	10	109
O=C(Cc1ccc(-n2cnnn2)cc1)NC12CC3CC(CC(C3)C1)C2	103	i	1	-6	-1.7	-9	99
Cc1ccccc1C(=O)Nn1c(C)ccc1C	94	i	1	1	/	/	/
Cc1nnc(SCC(=O)NCc2ccccc2)s1	99	i	0.88	-4	0.0	-33	167
COc1ccc(N2C(=O)CC(N3CCN(c4nc5ccccc5s4)CC3)C2=O)cc1 (stereo not given)	102	i	0.8	3	0.5	-25	28
NC(=O)c1ccc(Nc2nnc(-c3ccc(O)cc3)c3ccccc23)cc1	105	i	0.97	-1	/	/	/
CN(C)S(=O)(=O)c1ccc(NCC2COc3ccccc3O2)c([N+](=O)[O-])c1 (stereo not given)	101	i	0.78	10	-0.5	-53	158
CCOC(=O)c1cnc2c(c(C)nn2C)c1Oc1ccc(OC)cc1	97	i	0.91	/	/	/	/
CCS(=O)(=O)n1nc(NCc2cccc(OC)c2)nc1NCc1cccc(OC)c1	100	i	0.88	-2	0.1	-5	75
C/C(CC(=O)NCc1ccccc1)=N\NC(=O)c1cnccn1	101	i	0.82	-1	-2.1	/	/
O=C(CSc1nc2ccccc2o1)N/N=C/c1ccccc1	118	i	1.1	-19	-0.2	-3	96
O=C1C2C(c3ccccc3)CC=CC2[C@H](c2ccc3ccccc3c2)N1Cc1ccccc1 (stereo not given in full)	112	i	0.76	/	/	/	/
O=C(CC(Nc1ccc(F)cc1)C(=O)O)c1ccccc1 (stereo not given)	94	i	0.87	2	0.1	8	254
CC(O)CNCc1ccccc1C(F)(F)F (stereo not given)	99	i	1.1	-4	/	/	/
CCOC(=O)N1CCN(c2cc(NCCO)c([N+](=O)[O-])c3nonc23)CC1	97	i	0.87	-3	/	-22	78
COc1ccc(-c2ccccc2)cc1NCc1ccc(OC)c(OC)c1	98	i	0.98	4	-1.3	53	61
COC(=O)C1=C(C)N=C2SCCC(=O)N2C1c1ccc(OC(=O)c2ccco2)cc1 (stereo not given)	144	i	1	1	-2.1	-338	51
CCCc1nnc(NC(=O)CN2C(=O)c3ccccc3S2(=O)=O)s1	104	i	1.2	-13	-3.6	29	126
CC(C)(C)c1nnc2sc(SCC(=O)c3ccc4c(c3)OCCO4)nn2c1=O	112	i	0.94	-7	/	24	213
Cc1c(CN(C)C)c2c(n1C)C(=O)c1ccc(Br)cc1-2	104	i	0.93	23	3.5	-43	47

Part of the list above, with two lines to a compound:
Each structure is followed by: RGS16-Gao	HSV replic up	HSV replic up primary fold	PKD1 inh	GALR2 ag	INS promoter inh	INS promoter inh cell count
CCOC(=O)c1cnc2c(c(C)nn2C)c1Oc1ccc(OC)cc1
  97	i	0.91	/	/	/	/
CCS(=O)(=O)n1nc(NCc2cccc(OC)c2)nc1NCc1cccc(OC)c1
  100	i	0.88	-2	0.1	-5	75

(further entries)
SMILES	RGS16-Gao	HSV replic up	HSV replic up primary fold	PKD1 inh	GALR2 ag	INS promoter inh	INS promoter inh cell count
COc1ccc(-c2ccc(N(C)C)cc2)cc1[C@H]1[C@H]2C=CC[C@@H](C)[C@@H]2C(=O)N1Cc1ccccc1	102	i	0.94	/	/	/	/
COc1ccccc1C1CC(=O)NC(C)=C1C(=O)OCC(C)C (stereo not given)	100	i	1	-6	0.0	-39	113
CC1(C)CC(=O)C(N=Nc2ccc(OC(F)F)cc2)=C(O)C1	34	i	0.91	-1	/	0	125
CC1=C(C(=O)OCC(C)C)C(c2ccc(Br)s2)NC(=O)N1 (stereo not given)	100	i	0.99	-9	/	/	/
CC(C)CN=Cc1c(O)c([N+](=O)[O-])cc2oc3c(c12)CCCC3	95	?	/	-5	-0.4	/	/
O=C(CCn1[nH]c(=O)c2ccccc2c1=O)NCCO	101	i	1.1	-2	-0.2	-14	121
CCOC(=O)Cc1csc(NC(=O)CSc2nnc(Cc3csc(N)n3)n2C)n1	102	i	0.96	-1	-1.4	-8	189
COc1ccc(C(=O)Nc2ccc3c(c2)OCCO3)cc1	112	i	0.96	-3	-4.8	21	75
O=C(NCCOc1nc(N2CCOCC2)nc(N2CCOCC2)n1)Nc1ccc(Cl)cc1	100	i	0.97	-12	-1.9	4	129
Cn1c(N)c(C(=O)COC(=O)CNS(=O)(=O)c2ccc(Cl)c(Cl)c2)c(=O)n(C)c1=O	102	i	1.1	-2	-1.9	-8	77
N=C1CCCN1c1ccccc1O	103	i	1	/	/	/	/
CCOc1ccc(NC(=S)N2CCC(N(C)CCN3CCOCC3)CC2)cc1	100	i	1	-6	-1.3	-22	200
Cc1ccc(C2NC(=O)CCC2[N+](=O)[O-])cc1 (stereo not given)	101	i	0.97	-6	/	61	69
Cc1cc(C)nc(SCC(=O)c2ccc([N+](=O)[O-])cc2)n1	99	i	0.87	-6	-1.3	-10	77
COc1ccc(-c2cn[nH]c2-c2ccc(OCc3ccc([N+](=O)[O-])cc3)cc2O)cc1OC	104	i	0.88	/	/	/	/
CCc1c(C)c2nncn2[nH]c1=O	105	/	/	1	-0.4	/	/
CNc1nc(OCC(F)(F)F)nc(N2CCN(C34CC5CC(CC(C5)C3)C4)CC2)n1	/	/	/	-6	-1.5	30	147
CN(C1CCCC1)C1CCN(C(=O)CNC(=O)/C=C/c2ccc(F)cc2)CC1	103	i	0.97	-6	-0.2	23	110
CC(C)(O)C#Cc1ccc(CN2CCN(CCc3ccccc3)C(CCO)C2)s1 (stereo not given)	102	i	0.91	-2	/	/	/
CCOC(=O)CSc1nnc(CNC(=O)c2ccc(OC)cc2)n1Cc1ccccc1	102	i	1	7	-4.8	21	92
CCCC(=O)NCCCc1nc2ccccc2[nH]1	100	i	0.87	-11	-1.9	/	/
CCn1c2ccccc2c2cc(/C=N/n3cnnc3)ccc21	101	i	0.78	12	1.6	/	/
CC1(C)Cc2c(sc3nc[nH]c(=O)c23)CO1	100	i	0.9	-5	/	100*	63*
CCOc1cc(C2NC(=O)NC(C)=C2C(=O)OCc2ccccc2)ccc1O (stereo not given)	102	i	0.9	-24	0.1	/	/
C/C(=N/NC(=O)Cc1cc(=O)[nH][nH]1)c1ccc([N+](=O)[O-])cc1	64	i	0.93	15	-2.1	-107	58

Next compounds:
SMILES	RGS16-Gao	HSV replic up	HSV replic up primary fold	PKD1 inh	GALR2 ag	INS promoter inh	INS promoter inh cell count
N#Cc1cc2ccc(N3CCOCC3)cc2cc1C#N	101	/	/	2	-1.1	55	65
Nc1ncn(CC(=O)c2ccccc2)n1	102	i	1	-7	/	-90	63
Cc1ccc(CSc2nnc(C(F)(F)F)n2Cc2ccc(F)cc2)cc1	107	i	0.88	10	0.4	14	84
Cc1cc(=O)[nH]c(/N=C(\N)Nc2ccc(Oc3ccccc3)cc2)n1	103	i	0.95	/	/	/	/
C=CCS(=O)(=O)c1nc2ccccc2s1	101	i	0.88	-7	-2.7	19	117
COC(=O)c1ccc(Cn2nnc3c(sc4nc(N5CCOCC5)c5c(c43)CCCC5)c2=O)o1	/	/	/	0	1.1	-21	91
COc1cc(/C=N/Nc2ccccc2[N+](=O)[O-])cc(OC)c1O	90	i	0.88	8	/	-27	133
COc1ccc(CNC(=O)CCn2c(=O)oc3ccccc32)c(OC)c1	103	i	1	-4	/	/	/
CCC(=O)Nc1cccc2ccccc12	106	i	1.1	-17	/	/	/
CC1=CCC(C(=O)O)C(C(=O)O)C1 (stereo not given)	100	i	0.78	-3	-2.0	/	/
O=C(CN1C(=O)CSC1=O)NCc1ccccc1	104	i	0.8	-15	-1.6	/	/
C[C@@H](C(=O)N1CCN(C(=O)OC(C)(C)C)CC1)n1cc(CCCN=C(NC(=O)OC(C)(C)C)NC(=O)OC(C)(C)C)nn1	103	i	0.91	-5	/	/	/
CCOC(=O)c1cnc(-n2cc(C)cn2)nc1NCc1ccc2c(c1)OCO2	65	i	0.95	-6	-0.4	-21	90
CCOC(=O)c1cnn(-c2ncnc3sc(C)c(C)c23)c1N	103	i	1	-8	-0.4	28	90
O=C(Nc1ccc(Cc2ccncc2)cc1)c1ccco1	127	i	0.94	2	-1.7	36	47
COc1cccc(NC(=O)C2CC2(c2cccc(OC)c2)c2cccc(OC)c2)c1 (stereo not given)	98	i	1.1	10	-0.4	-91	148
Cc1c(O)c(S(=O)(=O)c2ccccc2)c(=O)n(-c2ccccc2)c1-c1ccccc1	106	i	0.93	-4	0.0	-25	152
CC(=O)c1sc(-c2ccccc2)cc1N	101	i	1.1	/	/	/	/
O=C(C1CCN(S(=O)(=O)c2cnc[nH]2)CC1)N1CCn2c1nc1ccccc12	96	i	0.99	4	0.2	-32	100
COc1ccc(CN2C(=O)c3ccccc3C2=O)cc1C(=O)OC(C)C(=O)NC(N)=O (stereo not given)	106	i	0.95	-4	-0.5	16	122
S=C(NCc1ccncc1)NC1CCCCC1	101	i	1.1	-3	/	-6	160
c1ccc(N2CCN(c3cnc4ccccc4n3)CC2)cc1	101	i	0.98	-2	1.2	54	79
O=C(CSc1nnc(-c2cccs2)o1)OC1CCCCC1	110	i	0.96	2	-0.7	-4	90
CSc1ccc(CNC2CC2)cc1	98	i	0.71	1	-2.4	25	123
O=C(CN1C(=O)C2CC=CCC2C1=O)NC1CCCCC1 (stereo not given)	102	i	0.95	-1	/	/	/

Structures from the list above that have a COOH group, in the order listed:
SMILES	RGS16-Gao	HSV replic up	HSV replic up primary fold	PKD1 inh	GALR2 ag	INS promoter inh	INS promoter inh cell count
Cc1cc(/C=N/n2cnnc2)c(C)n1-c1ccc(C(=O)O)cc1	102	i	0.85	-5	-1.7	-38	92
O=C(CC(Nc1ccc(F)cc1)C(=O)O)c1ccccc1 (stereo not given)	94	i	0.87	2	0.1	8	254
CC1=CCC(C(=O)O)C(C(=O)O)C1 (stereo not given)	100	i	0.78	-3	-2.0	/	/

Later entries:
SMILES	RGS16-Gao	HSV replic up	HSV replic up primary fold	PKD1 inh	GALR2 ag	INS promoter inh	INS promoter inh cell count
Cc1cccc(NC(=O)CSc2nc3c(oc4ccccc43)c(=O)n2-c2ccccc2)c1	98	/	/	3	0.4	/	/
Cc1nn(CCOc2ccccc2)c(=O)n1-c1c(F)cccc1F	99	i	0.96	-8	-1.9	0	52
COC(=O)C1=NNC(C(=O)c2ccco2)C1c1ccc(OC)cc1 (stereo not given)	101	i	0.97	1	/	/	/
O=C(CCn1c(=S)oc2ccccc21)Nc1ccc(F)cc1	107	i	1	-6	/	-85	130
CCOC(=O)C1CCCN(CC(=O)NC2=Nc3ccccc3N=C(C)C2c2ccccc2)C1 (stereo not given)	104	i	1	4	-2.3	-69	123
Cc1cc(Br)c2c(c1)C(O)(N1CCCCC1C)C(=O)N2 (stereo not given)	96	/	/	-4	-1.3	15	116
COc1ccccc1NS(=O)(=O)c1cc(NC(=O)c2cccs2)ccc1N1CCCCC1	93	i	0.75	6	-0.2	23	126
NC(=O)C1(N2CCCCC2)CCN(C(=O)Nc2ccccc2C(F)(F)F)CC1	99	i	0.88	7	-1.4	72	100
CCC(=O)N1CCc2cc(S(=O)(=O)CCC(=O)NCCc3ccccc3)ccc21	99	i	1	0	-2.8	13	118
CCN1CCN(C(=S)Nc2cc(C(=O)OC)ccc2C(=O)OC)CC1	103	i	0.92	-6	/	36	96
Cc1cc2cc(C#N)c(N3CCN(S(C)(=O)=O)CC3)nc2cc1C	94	i	1	-7	-2.1	/	/
CCn1c(SCC(=O)N2CCN(c3ccccc3)CC2)nnc1-c1ccoc1C	98	i	1.1	-8	-1.8	/	/
O=C(COC(=O)c1ccc2c(c1)OCCO2)NCCC1=CCCCC1	99	i	0.93	-2	-2.3	48	93
Cc1nn(-c2ccccc2)c(C)c1/C=N/n1cnnc1	99	i	1	4	/	45	111
CCC(=O)NC(=S)NNC(=O)COc1ccc(Br)cc1	97	i	0.93	-2	/	/	/
O=C(CN1CCN(c2ccc(Cl)cc2)CC1)Nc1cccc(F)c1	104	i	0.81	0	-0.1	0	85
